# StopGo RLuc = lowers the Renilla signal of an FMDV 2A StopGo reporter | HEK cells with a luciferase reporter of 2A StopGo recoding | 0.32% of 120,000 active | Potency, µM (top dose mostly 57.5 µM), inactives show at the highest dose signal change, negative = less light; active means well fitted falling curve with a large enough effect; inconclusive means small, poorly fitted or top-dose-only effect; inactive means no such curve, though single readings can be large or run the other way; further: nearly all actives have a fitted effect of over 55% in size; overnight with compound
# 2A firefly = lowers the firefly signal of an FMDV 2A StopGo reporter; HEK cells with a luciferase reporter of 2A StopGo recoding; Potency, µM (highest dose often 57.5 µM), for inactives: at the highest dose signal change, negative = less light; 0.23% of 120,000 active; AID 1745856; active = well fitted falling curve with a large enough effect; inconclusive = small, poorly fitted or top-dose-only effect; inactive = no such curve, though single readings can be large or run the other way; further: nearly all actives have a fitted effect of over 60% in size; overnight with compound
# * = called active by the depositor; u = inconclusive; & = joins results of further samples; [ ] = remark or other dose. On the % scale 0 is the no-effect control and ±100 the full control effect; potency means the concentration at half of the fitted maximal effect.
smiles,StopGo RLuc,2A firefly
Fc1ccc(/C=N/N=C/c2ccc(F)cc2)cc1,7%,85%[activator]
COc1ccccc1N1CCN(C(=O)Cn2c(=O)[nH]c3ccccc3c2=O)CC1,2%,17%
CCOc1ccc2oc(=O)cc(CN3CCN(Cc4ccc(F)cc4)CC3)c2c1,-2%&-7%,5%&-14%
N[C@H]1C(O)O[C@H](CO)[C@@H](O)[C@@H]1O (stereo not given in full),-3%,0%
Cc1ccc(C(=O)COC(=O)CCC(=O)Nc2ccc(Oc3cc(C)ccc3C(C)C)cc2)cc1,-8%,1%
CC(NCc1ccc(-c2ccccc2F)o1)c1ccccc1 (stereo not given),15%,1%
CC(=O)NC(C)C(=O)O (stereo not given),1%,6%
O=C(NCc1ccnc(-n2cccn2)c1)c1ccc(NC(=O)c2ccccn2)cc1,3%,40%[activator]
Cc1ccccc1CCNC(=O)c1cc2cc(S(=O)(=O)N3CCCCC3)ccc2n1C,-14%,-6%
Cc1ccc(-c2nn(CCC(N)=O)c(=O)c3ccccc23)cc1,17%,17%
Cc1oc(-c2nc(C#N)c(NCCCN(C)C)o2)cc1S(=O)(=O)N1CCCCCC1,-5%,-22%
CCc1ccc(-c2ccc3nnc(SCC(=O)Nc4cccc(C(C)=O)c4)n3n2)cc1,6%&-5%,19%&-12%
Cc1ccc(C(=O)COC(=O)C2(C)CC2(Cl)Cl)cc1C (stereo not given),18%,0%
Oc1cccc(/C=C/c2nc3ccccc3s2)c1,14%,u
CCOc1ccccc1NC(=O)Cn1c(=O)oc2cc(S(=O)(=O)NCc3ccccc3)ccc21,136%[activator],-14%
Cc1ccccc1-c1nc(SCC(=O)NCCc2ccc(Cl)cc2)n2[nH]c(=O)cc2n1,51%[activator],53%[activator]
CC(=O)c1ccccc1OCCOC(=O)c1ccc2c(c1)NC(=O)CS2,1%,-8%
O=c1c(-c2cc(-c3ccc(F)cc3)nc3c2COc2ccc(Cl)cc2-3)coc2ccc(F)cc12,-6%,-22%
O=Cc1cc(Cl)c(O)c(Br)c1,-6%,5%
CCN(CC)c1nc2ccccc2nc1C(=O)Nc1c(C)cccc1C,0%,-2%
COc1ccc(-c2cc(C(=O)Nc3cccc(O)c3)on2)cc1OC,-1%,72%[activator]
N#C/C(=C/c1cccc(OC(F)F)c1)c1ccccn1,u,108%[activator]
N#Cc1c(NC(=O)c2ccn(C(F)F)n2)sc2c1CCCC2,1%,195%[activator]
CCN(CC)S(=O)(=O)c1ccc2[nH]cc(C(=O)NCCc3ccccc3)c(=O)c2c1,-8%,-5%
CNc1c(NC(=O)Nc2ccc(F)cc2)c(=O)oc2ccccc12,2%,24%
C/C=C/Cn1c(NCc2ccccc2)nc2c1c(=O)[nH]c(=O)n2C,10%,23%
COc1ccc(OC)c(CCNC(=O)CCn2c(=O)c3cccn3c3cccnc32)c1,10%,-13%
CC1=C(C(=O)N(CC(=O)NCc2ccc(C)cc2)c2ccc(Cl)cc2)SCCO1,37%[activator],1%
CCc1ccccc1NC(=O)c1cnc2ccccc2n1,6%,152%[activator]
c1csc(CNCCC2CCCC2)c1,25%,18%
Cc1ccc(C)c(N2CCN(c3nc4ccc(Cl)cc4n4cnnc34)CC2)c1,-11%,15%
COc1ccccc1C(=O)Sc1ccc(C)cc1,-21%,45%[activator]
O=C(Nc1ccc(OCc2cc(=O)n3c4c(sc3n2)CCCC4)cc1)c1ccc(F)cc1,-5%,-9%
COc1ccc(-c2nc(C#N)c(NCc3ccco3)o2)cc1,180%[activator],143%[activator]
O=C(Nc1ccccc1)N1CCN(c2ccccc2Cl)CC1,6%,91%[activator]
CCC(C)C(=O)NCc1cccc(COC(C)C)c1 (stereo not given),4%,23%
Cc1nc2c(c(C)nn2C(C)(C)C)c(C)c1CCC(=O)Nc1ccc(Br)cc1Br,-8%,18%
CC(C)N1C(=O)C(NC(=O)C(=O)NCc2cccnc2)c2ccccc21 (stereo not given),-5%,5%
Cc1cc(C)c(C(N)CO)cc1C (stereo not given),-2%,-15%
COc1ccc(COC(=O)C2=C(C)NC3=C(C(=O)CCC3)C2c2cccc(OC)c2)cc1 (stereo not given),41%[activator],-4%
COc1ccc(/C(C)=C/C(=O)O)c(OC)c1,-6%,-13%[11.5 µM]
CN(CC(=O)Nc1ccccc1)C(=O)C(C)(C)C#N,-1%,-6%
CC(C)(C)c1ccc(/C=N/NC(=O)Cc2ccc(Cl)cc2)cc1,19%,0%
Cc1cccc(N2CCN(C(c3ccc(F)cc3)c3nnc(-c4ccccc4)o3)CC2)c1C (stereo not given),-5%,-9%
CCc1ccccc1NC(=O)Cc1c(C(=O)O)[nH]c2ccc(Cl)cc12,-12%,-8%
CC(C)c1ccc(NC(=O)c2cc(F)c(F)cc2Cl)cc1,13%,70%[activator]
CCN(c1ccc(OC)cc1)S(=O)(=O)c1ccc2[nH]c3c(c2c1)CCCCC3,15%,u
CCN(CC)S(=O)(=O)c1ccc2c(c1)N(CC(=O)Nc1ccc(Cl)cc1)C(=O)C1CCCN21 (stereo not given),1%,-15%
CC(=O)Oc1ccc2c(=O)c(-c3ccc4c(c3)OCCO4)c(C)oc2c1,2%,145%[activator]
CCCCc1nc(NCc2ccncc2)c(C#N)c2c1CCCC2,0%,u

# The list continues:
smiles,StopGo RLuc,2A firefly
Cc1cc2oc(=O)cc(COC(=O)C3CCCO3)c2cc1C (stereo not given),1%,10%
CCCOc1ccc(Nc2cc(C)nc(C)n2)cc1,7%,82%[activator]
Cc1[nH]c2ccccc2c1C(=O)C(=O)NCCCC(N)=O,-10%,-6%
C=CCSc1ccccc1NS(=O)(=O)c1ccc(S(=O)(=O)N(CC)CC)cc1,-29%,-6%
COc1ccc(N(Cc2cccs2)C(=O)c2ccc(OC)c(Cl)c2)cc1,-25%,-19%
COc1cccc2cc(C(=O)NCCc3c(C)[nH]c4ccc(C)cc34)c(=O)oc12,-4%,-1%
Cc1cc(-c2ccc(S(=O)(=O)Nc3cccc(Cl)c3C)s2)on1,122%[activator],-17%
CCOc1ccc(-c2cc3nc(C4CCN(C(=O)OC(C)(C)C)CC4)c(C(=O)Nc4ccc(C)cc4Cl)cn3n2)cc1,-15%,4%
COc1ccc(-c2cc(C(=O)Nc3cccnc3Cl)no2)cc1OC,11%,1%
Cc1nc2c(c(C)c1CCC(=O)NCCN1CCCCCC1)c(=O)n(C)c(=O)n2C,-1%,1%
COc1ccccc1-c1nc(SCC(=O)c2ccccc2)n[nH]1,0%,60%[activator]
O=C(O)C(c1c[nH]c2ccc(Cl)cc12)N1CCCN(c2ccc(C(F)(F)F)cn2)CC1 (stereo not given),-12%,-10%
COc1ccc(S(=O)(=O)Nc2nc3ccccc3nc2NCc2ccc(C)cc2)cc1,8%,124%[activator]
Cc1ccc(-c2cc(C(=O)OC(C)C(N)=O)c3ccccc3n2)c(C)c1 (stereo not given),-4%,-2%
CCOc1ccccc1C(=O)Nc1ccc2oc(=O)ccc2c1,3%,32%[activator]
COc1ccc2oc(=O)cc(-c3cc4ccccc4o3)c2c1,-3%,-9%
COc1cccc(C(Nc2ccccn2)c2c(NC(=O)c3ccccc3)sc(C)c2C)c1 (stereo not given),21%,78%[activator]
CCOC(=O)c1ccccc1NC(=O)c1ccc(N2CCCCS2(=O)=O)cc1Cl,7%,-3%
c1ccn2cc(CSc3ccc4c(c3)OCCCO4)nc2c1,-2%[1.06 µM],-38%
COc1ccc(Nc2nc(N3CCN(c4ccccc4)CC3)c3cnn(C)c3n2)c(OC)c1,2%,8%
Cc1nc(-c2ccc(C)c(S(=O)(=O)N3CCC(C(=O)Nc4ccc(Cl)cc4)CC3)c2)no1,-41%,15%
CCN(CC)c1ccc(C(=O)NN2CC(O)=C(c3nc(-c4ccc(Cl)cc4)cs3)C2=N)cc1,5%,21%
CCCCc1nc2ccccc2n1CC(=O)N(COCC)c1c(C)cccc1CC,7%,0%
COc1ccccc1Cc1nc2ccccc2nc1SCC(=O)NCc1ccco1,1%,-4%
CC(=O)Nc1ccc(NC(=O)c2c[nH]c3ccccc23)cc1,1%,144%[activator]
O=C(CSC1c2ccccc2Sc2ccccc21)Nc1ccc(C(=O)O)cc1,11%,13%
CCc1ccccc1N(C)C(=O)c1cnc(N2CCOCC2)c2ccccc12,12%&13%,-10%&-28%
O=C(CCn1ccc2cc(S(=O)(=O)N3CCCCC3)ccc21)NCCN1CCCCCC1,33%[activator],-12%
COc1ccc(-c2nc3scc(CCNS(=O)(=O)c4c(C)noc4C)n3n2)cc1OC,244%[activator],35%
COc1cc(CNC(=O)c2ccc3c(c2)CCC(=O)N3)ccn1,18%,25%
CCOc1ccccc1C(=O)Nc1ccc(OCC)c2ncccc12,36%[activator],0%
Cc1ccc(Cn2c(CN3CCC(C(=O)NCCc4ccccc4)CC3)cc3ccccc32)cc1,-13%,-10%
Cc1ccc(C(=O)NC(c2ccccc2)c2ccc(C)c(C)c2)cn1 (stereo not given),0%,14%
COc1ccc(-c2cc(C(C)=O)c(C)n2CCC(=O)Nc2ccc(C(F)(F)F)cc2)cc1,26%,2%
COc1cccc(N2CCN(C(=O)c3cnn(-c4ccccc4Cl)c3C3CCN(C(=O)OC(C)(C)C)CC3)CC2)c1,-6%,15%
COc1cc(OC)c(NC(=O)c2cnc(N3CCCC3)nc2C)cc1Cl,16%,3%
CCOc1ccc(CC(=O)NC2CC(=O)N(c3cccc(F)c3)C2)cc1 (stereo not given),-6%,-15%
CCc1cc2c(=O)c(-c3nncn3-c3ccccc3)coc2cc1OCC(=O)NC(CC)C(=O)O (stereo not given),-9%,-4%
S=C(NCc1ccccc1Cl)Nc1ccccc1,78%[activator],41%[activator]
CC1CCCN(S(=O)(=O)c2ccc(NC(=O)c3nc(SC(C)C)ncc3Cl)cc2)C1 (stereo not given),33%&3%,0%&-19%
O=C(Nc1ccc(-c2noc(-c3ccc(F)cc3)n2)cc1)c1ccc(Br)o1,16%,162%[activator]
O=C(c1c(F)cccc1F)N(Cc1ccc2cc[nH]c2c1)C1CC1,38%[activator],2%
O=C(COCc1cc(-c2ccc3c(c2)OCO3)on1)Nc1cccc(O)c1,5%,13%
CCCCCCNc1nc2c(c(=O)[nH]c(=O)n2C)n1Cc1cccc(C)c1,6%,22%
COc1ccc(C)cc1NC(=O)c1cc(-c2ccc(C)o2)nc2ccccc12,16%,0%
Cc1ccc(CNC(=O)C2CCN(Cc3nc(-c4ccccc4C)oc3C)CC2)cc1,-5%,-11%
COCCOc1ccc(C(=O)/C=C/c2cccc(C#N)c2)cc1OC,43%[activator],24%
CC(C)NC(=O)Cn1ccc2c(Cl)cccc21,17%,0%
CCCCN(CCCC)CCNC(=O)Cn1nc(C)n2c(cc3sccc32)c1=O,-7%,-4%
CCC(C)NC(=O)Cn1ncc2c(C)n(Cc3ccc(F)cc3)c(C)c2c1=O (stereo not given),-5%,45%[activator]

# Arranged by molecular weight (largest number first): some entries from above
smiles,StopGo RLuc,2A firefly
Cc1ccc(Cn2c(CN3CCC(C(=O)NCCc4ccccc4)CC3)cc3ccccc32)cc1,-13%,-10%
COc1ccc(-c2cc(C(C)=O)c(C)n2CCC(=O)Nc2ccc(C(F)(F)F)cc2)cc1,26%,2%
Cc1oc(-c2nc(C#N)c(NCCCN(C)C)o2)cc1S(=O)(=O)N1CCCCCC1,-5%,-22%
COc1ccc(C)cc1NC(=O)c1cc(-c2ccc(C)o2)nc2ccccc12,16%,0%
COc1ccc2oc(=O)cc(-c3cc4ccccc4o3)c2c1,-3%,-9%

# Next part.
smiles,StopGo RLuc,2A firefly
COc1ccccc1CNC(=O)c1oc2ccc3c(c2c1C)C(=O)CC(C)(C)O3,15%,0%
O=C(NCCc1csc(-c2ccccn2)n1)c1ccccc1,-9%,22%
CCOc1ccc(CCNC(=O)Cn2nc(CC)n3c(cc4sccc43)c2=O)cc1,-16%,-2%
O=C(Nc1ccc(C(=O)N2CCN(c3ccc(F)cc3)CC2)cc1)C1=CSCCO1,25%,-1%
COc1ccc2cc(/C=C(\NC(=O)c3ccccc3)C(=O)NCCCO)c(Cl)nc2c1,0%,1%
COc1cccc(CNC(=O)Cn2c(C)c3cnn(-c4ccccc4)c(=O)c3c2C)c1,-7%,3%
Cc1coc2c(C)c3oc(=O)c(CC(=O)N4CCCCC4)c(C)c3cc12,-6%,-16%
Cc1ccc(C)c(C(=O)C(C)Oc2ccc(C#N)cc2)c1 (stereo not given),-1%[1.06 µM],6%
CCOC(=O)c1c(C)[nH]c(C)c1S(=O)(=O)N1CCC(C(=O)NCc2ccc(N(C)C)cc2)CC1,25%,1%
CCc1ccc(Oc2nc3c(C)cccn3c(=O)c2/C=C(\C#N)c2nc3ccccc3[nH]2)cc1,-10%,-16%
O=C(NC1CCCC1)c1ccc2c(c1)N(Cc1c(F)cccc1Cl)C(=O)c1ccccc1S2,-2%,-27%
COc1ccc(C2c3cccn3CCN2S(=O)(=O)c2ccccc2[N+](=O)[O-])cc1OC (stereo not given),63%[activator],-4%
CN(C)CCn1cc(C(=O)c2cc(Cl)ccc2O)cc1-c1nc2ccccc2c(=O)[nH]1,-5%,-7%
Cn1cnc2c1c(=O)n(CC(=O)NCc1ccc(OC(F)F)cc1)c(=O)n2C,-13%,-3%
CCc1ccc(Cn2c(CNS(=O)(=O)c3ccc(C)c(C)c3)nc3cccnc32)cc1,5%,-12%

# Only part of the results is shown. The share of hits here may be higher or lower than overall.
